GIV-Gai inh – GIV-Galpha-i interaction inhibition | Galpha-i3/FITC-GIV peptide fluorescence polarization, 90 min; active compounds read low; scaled: aluminum fluoride 0%, vehicle 100% | AID 1224905 | percent of control (FP), % (concentration not given with the values) | P08753 | 210,000 tested, 0.42% active;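 active means replicate mean at 85% of control or lower, very high polarization wells dropped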;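 further: wells of about 15 µL received 100 nL stock; the first replicate is given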
Target sequence (P08753 whole entry, looked up): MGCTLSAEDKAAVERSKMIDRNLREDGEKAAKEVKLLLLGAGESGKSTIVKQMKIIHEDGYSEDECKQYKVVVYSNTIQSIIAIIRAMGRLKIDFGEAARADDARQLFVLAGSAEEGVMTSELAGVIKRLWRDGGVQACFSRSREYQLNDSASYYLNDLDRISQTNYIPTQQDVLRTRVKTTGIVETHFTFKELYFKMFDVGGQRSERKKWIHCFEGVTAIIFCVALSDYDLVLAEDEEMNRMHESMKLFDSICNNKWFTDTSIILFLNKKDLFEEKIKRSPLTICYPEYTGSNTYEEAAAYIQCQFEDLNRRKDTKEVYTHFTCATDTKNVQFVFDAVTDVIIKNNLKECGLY
* marks the source's active call; other numbers are inactive results. A portion of the library; the hit share may differ from the screen's.

The first 2 records as a preview:
SMILES,GIV-Gai inh
N#CC1=C(N)C(C#N)(C#N)C2(C(=O)Nc3ccccc32)C2CN(Cc3ccccc3)CC=C12 (stereo not drawn),184
COC(=O)c1cccc(-c2ccc(/C=C3\SC(=N)N(c4nccs4)C3=O)o2)c1,102

Main list, previewed entries included:
SMILES,GIV-Gai inh
N#CC1=C(N)C(C#N)(C#N)C2(C(=O)Nc3ccccc32)C2CN(Cc3ccccc3)CC=C12 (stereo not drawn),184
COC(=O)c1cccc(-c2ccc(/C=C3\SC(=N)N(c4nccs4)C3=O)o2)c1,102
O=C(NC1CC1)c1cccn2c(-c3ccccc3F)nnc12,100
CC1(C)Nc2ccccc2-c2c1ssc2=Nc1cc(Cl)cc(Cl)c1,110
CCOC(=O)C1=C(C)NC2=C(C(=O)C(C(=O)OCC)C(c3cccc(OC)c3)C2)C1c1cc(OC)c(OC)c(OC)c1 (stereo not drawn),103
CSc1nnc2c(n1)-c1cccc3cccc-2c13,110
COc1ccc2cc(C(=O)NCc3cccc(Cl)c3)c(=Nc3ccc(C(=O)O)cc3)oc2c1,108
Cc1nc2sccn2c(=O)c1NC(=O)c1ccc(F)cc1,105
CC1(C)CC(=O)C2=C(C1)Nc1ccccc1N(CC(=O)NC1CCCC1)C2c1ccccc1 (stereo not drawn),103
CC(C)CCn1c(CCCC(=O)Nc2nccs2)nc2cccnc21,127
COc1ccc(C2C3=C(CC(C)(C)CC3=O)Nc3ccccc3N2C(=O)NC2CCCC2)cc1 (stereo not drawn),102
O=[N+]([O-])c1ccc(Cl)c(-c2nc(-c3ccccc3)c(-c3ccccc3)[nH]2)c1,110
COc1ccc(-c2nc(-c3ccccc3)c(-c3ccc(Oc4ccccc4)cc3)[nH]2)cc1,117
CC1(C)OC2OC(C(=O)Nc3ccccc3)C3OC(C)(C)OC3C2O1 (stereo not drawn),106
Cc1ccc(-c2cc(N3CCN(C(=O)NCC(C)C)CC3)ncn2)cc1,102
COc1ccc(-c2c(C#N)c(N)nc3sc(C(=O)Nc4ccccc4)c(N)c23)cc1OC,104
Cc1nc(-c2cccc(NC(=O)C3CCN(c4ccccc4)C3=O)c2)no1 (stereo not drawn),101
CC(=O)N1CCCc2cc(S(=O)(=O)NCCCN3CCc4ccccc4C3)ccc21,98
O=S(=O)(c1cccc(-c2nnc(-c3ccc(F)cc3)o2)c1)N1CCOCC1,102
CCCCNC(=O)CSc1nc(Nc2cc(OC)cc(OC)c2)c2ccccc2n1,103
O=C(Cn1c(=O)c(CCC(=O)NC2CCCC2)nc2ccccc21)Nc1ccc(F)c(Cl)c1,105
CN(C)S(=O)(=O)c1ccc(-c2noc(C(=O)NCc3ccccn3)n2)cc1,104
COc1cc(/C=c2/sc3nc(-c4ccccc4)c(-c4ccccc4)n3c2=O)ccc1OCc1ccc(Cl)cc1Cl,111
CCCc1cc(C2CCCN2S(=O)(=O)c2ccc3c(c2)n(C)c(=O)c(=O)n3C)no1 (stereo not drawn),103
Cc1ccc(F)c(NS(=O)(=O)c2cc(-c3nc(C(C)(C)C)cs3)cs2)c1,104

Part of the list above, reformatted:
> COc1ccc2cc(C(=O)NCc3cccc(Cl)c3)c(=Nc3ccc(C(=O)O)cc3)oc2c1
- GIV-Gai inh: 108
> Cc1nc2sccn2c(=O)c1NC(=O)c1ccc(F)cc1
- GIV-Gai inh: 105

Next section.
SMILES,GIV-Gai inh
CCC(C)Nc1nc(OC(C(F)(F)F)C(F)(F)F)nc(N2CCOCC2)n1 (stereo not drawn),107
CCOc1ccc(NC(=O)CSc2ccc(S(=O)(=O)c3ccccc3)nn2)cc1,103
COc1cccc(C(=O)N(Cc2cccnc2)c2nc3c(Cl)cccc3s2)c1,102
CC1=C(C(=O)Nc2cccnc2)C(c2ccccn2)n2nc(SCc3ccccc3F)nc2N1 (stereo not drawn),108
CCN(CC)c1cc(C)nc(Nc2ccc(NC(=O)C3CCCO3)cc2)n1 (stereo not drawn),102
O=c1c2c(nc(NCCCO)n1Cc1ccccc1)-c1ccccc1CC21CCCCC1,118
Cc1nn(-c2ccc3nncn3n2)c(C)c1CCC(=O)Nc1ccc(F)c(Cl)c1,89
CCn1cnc2cc(-c3noc(CNC(=O)Cc4ccc(Cl)cc4)n3)ccc21,100
CC(C)NC(=O)CCn1c(=O)c2cc(Cl)ccc2n2c(=O)n(CC(N)=O)nc12,97
O=C(Nc1ccc(C(=O)N2CCC(C(=O)NCC3CCCO3)CC2)cc1)c1ccccc1Cl (stereo not drawn),106
COC(=O)C1=CN(Cc2ccc(OC)c(OC)c2)C=C(C(=O)OC)C1c1cc(Cl)c(O)c(OC)c1,106
O=C(CCN1CCOCC1)Nc1cc(C(=O)Nc2ccc(F)c(F)c2)ccc1N1CC2CC(C1)c1cccc(=O)n1C2 (stereo not drawn),115
CCC(C)NC(=O)NC1CCN(C2=NS(=O)(=O)C(c3ccccc3)=C2C)CC1 (stereo not drawn),100
Cc1ccc(-c2cncc(C(=O)NC(C)CCc3ccccc3)c2)cc1 (stereo not drawn),100
Cc1ccc(NC(=O)C(Cc2c[nH]c3ccccc23)NC(=O)OC(C)(C)C)cc1C (stereo not drawn),111
Cc1nn(C)c(C)c1S(=O)(=O)N1CCCC(c2nnc(C(=O)Nc3ccccc3)s2)C1 (stereo not drawn),100
CCOCCCn1c(=S)[nH]c2cc(C(=O)NCCc3c[nH]c4ccccc34)ccc2c1=O,107
CNC(=O)CN1c2ccccc2NC2=C(C(=O)CC(C)(C)C2)C1c1ccc(F)cc1 (stereo not drawn),101
CNC(=O)N(C)Cc1ccoc1,109
CCC/C=C1\CC(c2ccccc2)C(C#N)(C#N)C(N)=C1C#N (stereo not drawn),113
CCCN1CCN(Cc2nc3nc(C)cc(N4CCOCC4)n3n2)CC1,101
COc1ccc2c(c1)NC1(CCN(C(=O)Nc3ccc4c(c3)OCCO4)CC1)c1cccn1-2,109
O=C(CSc1nnc2ccc(C(=O)NCc3ccccc3)cn12)Nc1ccc2c(c1)OCO2,106
O=S(=O)(c1ccc(F)cc1)N(Cc1ccco1)CC1CCCO1 (stereo not drawn),103
CCOC(=O)c1cnn(-c2ccccc2)c1NC(=O)CSc1nc2ccccc2[nH]1,108
O=C(CSc1nc(=O)[nH]c2c1CCCC2)Nc1nc2ccccc2s1,107
CCN(CC)C(=O)c1ccc(-c2nc3cc(NS(=O)(=O)c4cc(F)ccc4C)ccc3n2C)cc1,104
CC(C)c1nnc(-c2coc(S(=O)(=O)N3CCN(C4CCCCC4)CC3)c2)o1,101
COC(=O)c1c(C)oc2ccc(N(C(=O)c3c(OC)cccc3OC)S(=O)(=O)c3ccc(Cl)cc3)cc12,106
O=C(Cc1ccccc1)NC(c1ccccc1)c1ccc2cccnc2c1O (stereo not drawn),100
Cn1c(=O)c2nc(S(=O)(=O)CCC(=O)Nc3ccc(Cl)cc3)n(C)c2n(C)c1=O,102
CCCS(=O)(=O)c1c(S(=O)(=O)CCC)c2c(C)cccn2c1C(=O)N/N=C/C(C)C,109
CCCCC1(C)NC(=S)N(c2ccc(C)cc2)N1 (stereo not drawn),96
Cc1cccc(NC2=NC(=S)N(c3ccc(Cl)cc3)C23CCCCC3)c1,107
COc1ccc(Br)cc1CN1CCCC1c1cc(C)no1 (stereo not drawn),101
CC(=O)Oc1cc2oc3c(c2cc1OC(C)=O)C(=O)CC(C)(C)C3,119
COc1cc(OC)c(OC)cc1C=Nc1c(C)n(C)n(-c2ccccc2)c1=O,110
Cn1cc(C(=O)Oc2cccnc2)c2ccccc2c1=O,109
Cc1ccc2cc(Nc3nc(N4CCOCC4)nc(N4CCOCC4)n3)ccc2n1,105
O=C(c1nc(C2CCCC2)nc2c1OCCO2)N1CCOCC1,102
O=S(=O)(NC1c2cccc3cccc(c23)C1N1CCNCC1)c1ccc(Cl)cc1 (stereo not drawn),108
Cc1ccc2nc(N3CCN(C(=O)c4ccc5c(c4)OCCO5)CC3)sc2c1,98
Cc1ccc(S(=O)(=O)Nn2c(SCC(=O)n3nc(N)cc3C)nc3ccccc3c2=O)cc1,108
Cc1nn(-c2nc3ccccc3o2)c2c1C(c1cc(F)ccc1F)CC(=O)N2 (stereo not drawn),100
COc1cccc(NS(=O)(=O)c2cc(C(=O)N3CCN(Cc4ccccc4)CC3)ccc2NCc2ccc(F)cc2)c1,110
CCOc1ccc(NC(=O)c2sc3nc4c(cc3c2N)C(=O)CC(C)(C)C4)cc1,106
CCOc1c(OC)cc(C2C(C#N)=C(N)Oc3n[nH]c(-c4ccncc4)c32)cc1OC (stereo not drawn),106
CCOC(=O)C1CCCN(c2ccc3nnc(CCc4nc(-c5ccccc5C)no4)n3n2)C1 (stereo not drawn),101
CC(C)Cn1c(=O)c(N2CCC(NC(=O)Nc3ccc4c(c3)OCCO4)CC2)nc2ccccc21,110
CCNC(=O)N1CCCN(S(=O)(=O)C(C)C)CC1,100

The list goes on.
SMILES,GIV-Gai inh
COc1cccc(CSc2ccc(S(=O)(=O)N3CCOCC3)cc2C(=O)NCCC2=CCCCC2)c1OC,103
COc1cccc(NC(=O)CN(c2cc(C(F)(F)F)ccc2Cl)S(=O)(=O)c2ccccc2)c1,132
COc1ccc(Br)cc1-c1nc(CSc2nc3c(=O)[nH]cnc3n2C)c(C)o1,104
COc1ccc(C2=N/C(=C\c3cc(Br)ccc3OC)C(=O)O2)c(Cl)c1,111
NC(=O)c1ccc(NC(=O)c2sc3ncccc3c2-n2cccc2)cc1,104
CCSc1nnc(-c2nn(C)c3c2CN(S(=O)(=O)c2cccc(C)c2)CC3)n1C,102
CCOc1ccc(N2C(=O)CSC23C(=O)N(CN2CCN(c4ccc(F)cc4)CC2)c2ccccc23)cc1 (stereo not drawn),104
Cc1csc(-c2cc(S(=O)(=O)NCc3cccs3)c(C)n2C)n1,103
Cc1ccccc1N=C(NOCc1ccccc1)c1nonc1N,105
CCC(C)c1ccc(N2C(=O)c3ccccc3NC2c2ccc(Br)cc2)cc1 (stereo not drawn),99
O=[N+]([O-])c1ccc(-c2nc(NCc3cccnc3)c3ccccc3n2)cc1,107
c1ccc(CN2CCN(Cc3ccccc3)C2c2cccs2)cc1,112
O=C(NCc1ccccn1)NC1COc2ccccc2C1 (stereo not drawn),95
O=C(CN1C=C(c2ccc3ccccc3n2)Cc2ccccc21)c1ccccc1,126
O=C(c1ccc(Cl)cc1)N1CCc2cc(CNS(=O)(=O)c3ccccc3F)ccc21,102
CCCN(CCC)c1nc(N2CCOCC2)nc(N2CCOCC2)n1,104
COC(=O)c1ccc2c(=O)n(CCN3CCOCC3)c(SCC(=O)c3ccc(Br)cc3)nc2c1,106
CC1CCC(C(C)C)C(=O)/C1=C/c1ccc(Br)cc1 (stereo not drawn),106
C=CCSc1nnc2[nH]c(=O)cc(CCC)n12,105
CCOc1ccc(N2C(=O)C(C)SC23C(=O)N(CN2CCN(c4ccccc4)CC2)c2ccccc23)cc1 (stereo not drawn),99
CC(=O)Nc1cccc(NC(=O)CSc2nc(C)c(C)c(C)c2C#N)c1,111
CCOC(=O)C(C)Sc1nc2c(c(=O)n1-c1ccc(OCC)cc1)SCC2 (stereo not drawn),111
Cc1ccc(-c2nc3sc(CCNC(=O)c4cccc(Br)c4)c(C)n3n2)cc1,101
CC1(C)CC(=O)C2=C(C1)Nc1ccc3ccccc3c1C2c1ccc(C(F)(F)F)cc1 (stereo not drawn),117
Cc1ccc(N2C(=O)/C(=C/c3ccc([N+](=O)[O-])cc3)C=C2c2ccccc2)cc1[N+](=O)[O-],106
CCOC(=O)N1CCC(NC(=O)CSc2nc3ccccc3n2S(=O)(=O)c2ccccc2)CC1,113
CC(C)c1nn2c(S(=O)(=O)N3CCOCC3)c(C(C)C)nc2s1,102
CCCN1CCN(S(=O)(=O)c2cc(-c3nnc(C(C)C)o3)co2)CC1,101
CCc1onc(C)c1C1CCCN1C(=O)c1ccnn1C (stereo not drawn),91
COc1cc(NC(=O)Cn2nc3c4sccc4ncn3c2=O)cc(OC)c1,108
C=Cc1ccc(Cn2nc3c(S(=O)(=O)N4CCN(c5ccc(F)cc5)CC4)cccn3c2=O)cc1,103
OC1(c2ccccc2)CN(c2ccccc2)C2=[N+]1CCS2 (stereo not drawn),101
Cc1ccc(N2CC(NC(=O)Nc3nc4ccccc4s3)CC2=O)cc1 (stereo not drawn),107
CCn1c(CCc2cccc(NS(=O)(=O)c3ccc4c(c3)oc(=O)n4C)c2)nc2ccccc21,104
CC(C)(C)c1ccc(C2C=C(Nc3cccc(Cl)c3)C(=O)N2c2cccc(Cl)c2)cc1 (stereo not drawn),110
O=C(NC1CCCC1)c1cccc(Nc2ncc(-c3ccc(F)cc3)cn2)c1,106
Cc1cc(N2CCN(c3ncccn3)CC2)n2c(nc3ccccc32)c1C#N,106
CC(C)(C)c1ccc(O)c(NC(=O)c2cn(-c3ccc(S(=O)(=O)N4CCOCC4)cc3)cn2)c1,140
Cc1ccc2c(c1)NC(C)(C)c1ssc(=Nc3cccc(C)c3C)c1-2,100

5 compounds already listed, ordered by SMILES length, rising:
SMILES,GIV-Gai inh
CCc1onc(C)c1C1CCCN1C(=O)c1ccnn1C (stereo not drawn),91
COc1cc(NC(=O)Cn2nc3c4sccc4ncn3c2=O)cc(OC)c1,108
O=C(NC1CCCC1)c1cccc(Nc2ncc(-c3ccc(F)cc3)cn2)c1,106
CCn1c(CCc2cccc(NS(=O)(=O)c3ccc4c(c3)oc(=O)n4C)c2)nc2ccccc21,104
CC(C)(C)c1ccc(O)c(NC(=O)c2cn(-c3ccc(S(=O)(=O)N4CCOCC4)cc3)cn2)c1,140

From PubChem
